FEN1 inh: human FEN1 inhibition | P39748 | Recombinant FEN1 flap cleavage, fluorescence, 15 min | Potency, µM (highest dose often 114 µM), for the others: at the top dose activity change, negative = inhibition, most hits filed as inhibitors | 0.35% of 390,000 active; further: nearly all actives have a fitted effect of over 65% in size
Target sequence (P39748 whole entry, looked up): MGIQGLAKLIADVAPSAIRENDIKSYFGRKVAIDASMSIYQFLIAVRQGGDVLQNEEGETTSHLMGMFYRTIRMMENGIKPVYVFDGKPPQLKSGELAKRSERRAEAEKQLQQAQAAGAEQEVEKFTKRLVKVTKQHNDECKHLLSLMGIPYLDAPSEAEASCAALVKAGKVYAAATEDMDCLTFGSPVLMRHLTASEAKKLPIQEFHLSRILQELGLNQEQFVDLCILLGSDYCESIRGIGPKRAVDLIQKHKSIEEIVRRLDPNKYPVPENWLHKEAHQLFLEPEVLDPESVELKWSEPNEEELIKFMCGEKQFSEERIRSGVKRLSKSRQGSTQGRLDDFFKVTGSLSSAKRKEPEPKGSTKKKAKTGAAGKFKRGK
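Nuclease activity of 10 nM FEN1 was measured after 15 min of room-temperature exposure to titrated compounds, by adding 50 nM flap substrate and reading plates at 0 and 15 min.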
TDP1 cell CPT: growth inhibition of DT40 Tdp1-/-;hTDP1 cells with camptothecin (screen for TDP1 inhibitors); Potency, µM (top dose mostly 46.2 µM), without a hit: at the highest dose activity change, negative = growth inhibition, usual class: inhibitors; 12% of 420,000 active; chicken DT40 Tdp1-/-;hTDP1 cells + 20 nM CPT, ATP luminescence, 48 h; further: nearly all actives have a fitted effect of over 55% in size
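Chicken DT40 Tdp1-/- cells complemented with human TDP1, 400 cells/well, exposed to compounds plus 20 nM camptothecin for at least 48 h at 37 C; viability read as ATP content by CellTiter-Glo luminescence.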
Active calls of the source: *; ? = inconclusive; / = no result given; & = joins results of further samples. The call rests on the fitted dose curve; in most records, active means well fitted curve in the direction sought with a large enough effect; inconclusive means small, poorly fitted or top-dose-only effect, or another doubt; inactive means no such curve, though single readings can be large; an effect the other way counts as inactive or inconclusive. On the % scale 0 is the no-effect control and ±100 the full control effect; potency means the concentration at half of the fitted maximal effect. A portion of the library; most or all hits stand in other tables.

Under each structure: TDP1 cell CPT, FEN1 inh
CCn1c(=O)[nH]c(=O)c2c(N)c(C(=O)c3ccccc3OC)sc21
  -18%, -1%
COCCNCC(O)CON=C1c2ccccc2-c2ccccc21 (stereo not given)
  ?, -10%
Cc1ncc(N=Nc2ccccc2Cl)c(-c2ccccc2)n1
  ?, -16%
CCOc1ccc(/C=C2\SC(=S)N(C(C(=O)O)c3ccccc3)C2=O)cc1OC (stereo not given)
  -4%, 5%
CCc1ccc(NC(=O)C(=O)NNC(=O)c2cccs2)cc1
  ?, 15%
CC1CCN(S(=O)(=O)c2cccc(C(=O)Nc3nncs3)c2)CC1
  1%, 5%
Clc1ccc(-n2nnc(-c3cccnc3)n2)cc1Cl
  -20%, 3%
Cc1nn2c(-c3ccco3)ccnc2c1-c1ccc(Cl)cc1
  -5%, 14%
COCC(C)n1c(SCC(=O)NC(=O)NCc2ccccc2)nc2ccccc2c1=O (stereo not given)
  -20%, 5%
CN1C(C(=O)NCC2CC2)CC2Cn3c(nc4cc5ccccc5cc43)C21 (stereo not given)
  -14%, -4%
Cc1ccc2c(c1)C(c1ccccc1)N(C(=O)c1ccc(F)cc1)CC(=O)N2 (stereo not given)
  -4%, 8%
Brc1ccc(Nc2ncnc3[nH]ncc23)cc1
  -2%, 6%
O=C(NN1CCOCC1)c1ccco1
  0%, 15%
CCOC(=O)CNC(=O)C(=O)c1c(O)[nH]c2ccccc12
  -2%, 2%
CCN(C(=O)CSc1nnc(-c2ccccc2C)n1C)c1c(N)n(Cc2ccccc2)c(=O)[nH]c1=O
  0%, 0%
O=C(O)c1ccc(Sc2nnnn2-c2ccccc2)c([N+](=O)[O-])c1
  -2%, 0%
Cc1ccc(Nc2nnc(SCC(=O)NC3CCS(=O)(=O)C3)s2)c(C)c1 (stereo not given)
  -2%, 1%
CC1(OC(=O)C2CCCC2)C(=O)C=C2C=C(c3ccsc3)N(Cc3ccccc3)C=C2C1=O (stereo not given)
  ?, -4%
COc1ccccc1C(CNC(=O)C(C)(C)Oc1ccc(Cl)cc1)N1CCCC1 (stereo not given)
  ?, 0%
NNC(=O)c1ccc(Cn2cc(Br)cn2)o1
  20%, -9%
CCCCN(C(=O)Nc1ccc(OCC)cc1)C1CCN(C(C)=O)CC1
  -13%&-4%, 13%&-6%
CC(=O)Nc1ccc(C(=O)COC(=O)C2CCCCC2)c(F)c1
  1%, -7%
CCC(=O)N1CCc2cc(Br)cc(S(=O)(=O)CCC(=O)Nc3ccccc3C)c21
  -15%, -6%
COc1ccc(CCNC(=O)CN(c2cccc([N+](=O)[O-])c2)S(C)(=O)=O)cc1
  13%, -4%
Cc1cc(C)c(/C=N/n2c(C)cc(C)c(C#N)c2=O)c(C)c1
  ?, 6%
N/C(=N\OC(=O)c1cc([N+](=O)[O-])ccc1Cl)c1ccccn1
  ?, 1%
CC(C)(C)c1cc[n+](-c2nc([O-])sc2C=O)cc1
  -1%, -1%
N#C/C(=C\c1cccc([N+](=O)[O-])c1)C(=O)Nc1cccnc1
  -2%, 7%
O=C1C(NS(=O)(=O)c2cccs2)=C(N2CCN(Cc3ccccc3)CC2)C(=O)c2ccccc21
  ?, -16%
O=C(CN(C(=O)c1ccc(Cl)cc1)N1C(=O)C2C3C=CC(C3)C2C1=O)c1cccs1 (stereo not given)
  -13%, -3%
CCOC(=O)c1c(NC(=O)C[n+]2ccc(N(C)C)cc2)sc(C)c1C
  ?, 13%
c1ccc2c(c1)nc(N1CCCCCC1)c1ccccc12
  ?, 0%
COc1ccc(-c2cc(C(=O)NCc3ccc(F)cc3)no2)cc1
  -14%, -9%
CC(=O)NCCc1nc2cc(NC(=O)c3ccccc3)ccc2n1C
  -19%, 5%
CCC(C)(C)NC(=O)C(c1ccc(C)o1)N(C(=O)c1csnn1)c1cccc(F)c1 (stereo not given)
  2%, -5%
CSc1ccc(S(=O)(=O)NCC(=O)OCCOc2ccccc2)cc1[N+](=O)[O-]
  10%, 0%
Cc1ccc(-c2nc3ccsc3c(=O)[nH]2)cc1
  -7%, 13%
CCOC(=O)NC(c1ccc(C(C)C)cc1)C(Cl)(Cl)Cl (stereo not given)
  0%, -3%
COc1ccc(OC)c(C(=O)C2COC(=O)C2)c1 (stereo not given)
  ?, 10%
COc1ccc(Cl)cc1C(=O)NNC(=S)NC(=O)c1ccc(F)c(F)c1
  -14%, 2%
Cc1cccc(-c2nc3c(c(SCC(=O)N4CCCC4)n2)COC(C)(C)C3)c1
  ?, -2%
COc1ccc(/C=C/C(=O)Nc2sc(Cc3ccccc3)c(C)c2C(N)=O)cc1
  -20%, 0%
CCC(C)NCCOCCOc1ccc(Br)cc1 (stereo not given)
  ?, -14%
COc1ccc(CNC(=O)[C@@H](NC(=O)C2CCN(C(=O)[C@@H](N)Cc3ccccc3)CC2)C(C)C)cc1
  -2%, 4%
CSc1cccc(NC(=O)CSc2nnc(C)s2)c1
  -7%, -10%
O=c1[nH]c(COc2ccc(Cl)cc2Br)nc2ccccc12
  23µM*, 4%
Cc1cc(C(=O)Nc2ccccc2C)c2ccccc2n1
  -3%, -2%
CSCCC(NC(=O)C1CCC(C)CC1)C(=O)N1CCN(c2ccccn2)CC1 (stereo not given)
  ?, 7%
Cc1ccc(OCC(O)Cn2c(N)nc3c2c(=O)n(C)c(=O)n3C)cc1 (stereo not given)
  ?, 14%
Cc1c2cnn(CC(=O)NCc3ccccc3)c(=O)c2c(C)n1Cc1cccc(Cl)c1
  4.6µM*, -1%

Continued:
Under each structure: TDP1 cell CPT, FEN1 inh
O=S(=O)(NC1CCCCC1N1CCN(c2ccc(F)cc2)CC1)c1ccc(Cl)cc1 (stereo not given)
  ?, 4%
O=C(Nc1nc2c(s1)CCCC2)c1ccc2ncsc2c1
  16µM*, -23%
c1csc(-c2noc(CN3CCc4sccc4C3)n2)c1
  -5%, -5%
Cc1cc2cc(C)c3nnc(SCC(=O)NCc4ccco4)n3c2cc1C
  ?, -5%
COc1ccccc1C(=O)Nc1ccnn1C1CCN(C/C=C/c2ccccc2)CC1
  23µM*, 2%
COc1ccc(N2CCN(C(=O)CCc3c(C)nc4cc(-c5ccc(Cl)cc5)nn4c3C)CC2)cc1
  2%, 2%
CCN(CCO)Cc1csc2c(Br)cccc12
  -12%, -3%
CC(NC(=O)Cc1ccc(Br)cc1)c1ccccc1 (stereo not given)
  -9%, -11%
O=c1nc(N2CCOCC2)ccn1-c1nc(-c2ccccc2)sc1-c1ccccc1
  -21%, 11%
Cc1ccc(NC(=O)CCNC(=O)c2ccco2)cc1Cl
  -23%, -12%

Quoted from the listing.
COc1ccc(N2CCN(C(=O)CCc3c(C)nc4cc(-c5ccc(Cl)cc5)nn4c3C)CC2)cc1 in FEN1 inh: 2%
CCN(CCO)Cc1csc2c(Br)cccc12 in TDP1 cell CPT: -12%
COc1ccccc1C(=O)Nc1ccnn1C1CCN(C/C=C/c2ccccc2)CC1 in FEN1 inh: 2%
c1csc(-c2noc(CN3CCc4sccc4C3)n2)c1 in FEN1 inh: -5%
CC(NC(=O)Cc1ccc(Br)cc1)c1ccccc1 (stereo not given) in TDP1 cell CPT: -9%

3 entries picked at random from the list so far:
Under each structure: TDP1 cell CPT, FEN1 inh
COc1ccc(/C=C/C(=O)Nc2sc(Cc3ccccc3)c(C)c2C(N)=O)cc1
  -20%, 0%
Cc1ccc2c(c1)C(c1ccccc1)N(C(=O)c1ccc(F)cc1)CC(=O)N2 (stereo not given)
  -4%, 8%
Cc1ncc(N=Nc2ccccc2Cl)c(-c2ccccc2)n1
  ?, -16%

(further entries)
Under each structure: TDP1 cell CPT, FEN1 inh
O=[N+]([O-])c1cccc(S(=O)(=O)NC2CC3CCC2C3)c1 (stereo not given)
  -10%, -3%
CCc1ccc(NC(=O)NCCCN2CCCC2=O)cc1
  -9%, -1%
Cc1ccc(S(=O)(=O)NC(=O)c2ccc(F)cc2)c(C)c1
  17%, 0%
COc1cccc(CNC(=O)CSCc2cnn(-c3ccccc3)c2-n2cccc2)c1
  ?, -10%
CC(C)(C)c1ccc(C(=O)OCC(=O)NC2CC2)cc1
  2%, 1%
O=C(NC(=S)Nc1ccccn1)c1cccc([N+](=O)[O-])c1
  ?, -8%
COc1ccccc1CN=c1c([N+](=O)[O-])nn(-c2ccc3c(c2)OCCO3)n1O
  ?, -14%
COc1ccc(S(=O)(=O)Nc2cccc(N(C)S(C)(=O)=O)c2)cc1C
  26µM*, -11%
CCCCC(=O)Nc1ccc2c(c1)C(=O)NC2=O
  -18%, 1%
CS(=O)(=O)N(Cc1ccc(C(=O)NCCSCc2ccco2)cc1)c1ccccc1
  ?, -7%
Nc1nc(SCC(=O)Nc2cccc([N+](=O)[O-])c2)n[nH]1
  9%, 2%
CCOC(=O)N1CCN(C(=O)CCn2c(=S)[nH]c3ccsc3c2=O)CC1
  2%, 10%
CC(C)N(C)CCOC(=O)c1ccccc1Cl
  -20%, -5%
CC(=O)Nc1cccc(Oc2cc(C#N)c(C#N)cc2N2CCOCC2)c1
  ?, -4%
O=C(NCc1cccs1)c1ccc(CS(=O)(=O)c2ccc(Cl)cc2)o1
  ?, -1%
Cc1cc(S(=O)(=O)NCc2ccccc2)ccc1OCC(=O)N1CCOCC1
  4%, -14%
Cc1ccc(CNC(=O)c2ccc(S(=O)(=O)Nc3c(C)n(C)n(-c4ccccc4)c3=O)cc2)cc1
  ?, 3%
Nc1ccccc1-n1c(=O)n(Cc2ccccc2F)c(=O)c2[nH]cnc21
  ?, 3%
CCOc1cc(Cl)c(CNCCCN2CCOCC2)cc1OC
  28%, 8%
CCc1nnc(NC(=O)c2cc(OC)c(OC)cc2[N+](=O)[O-])s1
  8%, 5%

Next part; the last three above are carried over.
Under each structure: TDP1 cell CPT, FEN1 inh
Nc1ccccc1-n1c(=O)n(Cc2ccccc2F)c(=O)c2[nH]cnc21
  ?, 3%
CCOc1cc(Cl)c(CNCCCN2CCOCC2)cc1OC
  28%, 8%
CCc1nnc(NC(=O)c2cc(OC)c(OC)cc2[N+](=O)[O-])s1
  8%, 5%
CCOc1ccccc1NC(=O)Cn1c(=O)n(-c2ccc(C)c(C)c2)c(=O)c2c(C)c(C(=O)N(C)C)sc21
  -23%, 4%
CCc1noc(N)c1C(=O)Nc1ccc(F)c(Cl)c1
  -27%, 0%
Clc1ccc(/C=N\Nc2ccccc2)cc1
  -19%, 8%
COc1ccc(OC)c(CNc2nc3ccccc3n2CCN2CCCCC2)c1
  ?, -20%
O=C(O)Cn1nnc(-c2ccc(OCc3ccccc3Cl)cc2)n1
  11%, 17%
COc1ccc(N(C)S(=O)(=O)c2cccc(C(=O)Nc3nnc(C)s3)c2)cc1
  -27%, -9%
Cc1cnc(C(=O)Nc2cc(F)ccc2C)cn1
  ?, 15%
CC(=O)N1CC(C)Oc2ccc(S(=O)(=O)NC(CC(=O)O)c3ccccc3)cc21 (stereo not given)
  -1%, -8%
O=C(OCC(=O)N1CCCC1=O)C1CCN(S(=O)(=O)c2ccc(Cl)c(C(F)(F)F)c2)CC1
  -3%, -2%
N=c1oc2ccc(Br)cc2cc1C(=O)NCc1ccccc1
  ?, 1%
COc1ccccc1NC(=S)N1CCN(c2ccccc2F)CC1
  ?, -4%
CC1CCCC(C)N1C(=O)COC(=O)C(Cc1ccccc1)NC(=O)c1cccs1 (stereo not given)
  ?, 8%
CN1C(=S)SC(C)(NO)C1(C)C (stereo not given)
  8%, -11%
O=C1CCN(S(=O)(=O)c2ccc(Br)cc2)CCN1
  5%, 7%
CN(C)c1ccc(/C=C/c2nc3ccccc3c(=O)n2CCO)cc1
  18µM*, -13%
CC(=O)Nc1ccc(OS(=O)(=O)c2cc(Cl)ccc2C)cc1
  21µM*, -17%
O=C(Nc1cccc(F)c1)N(Cc1ccc(Cl)cc1)CC(O)C(F)(F)F (stereo not given)
  ?, -20%
COc1ccc(NC(=O)C2CCN(C(=O)NCc3ccccc3)CC2)cc1
  -1%, -2%
CCOc1ccc(NC(=O)CCS(=O)(=O)c2ccc(C)cc2)cc1
  -15%, -4%
CCC(=O)N1CCc2cc(S(=O)(=O)NCCC(=O)N3CCN(c4ccccc4)CC3)ccc21
  ?, 12%
N#Cc1cc(-c2ccccc2)nnc1Sc1ccc(F)cc1
  -8%, 3%
COc1ccc(C2CC(c3ccccc3)=NN2S(=O)(=O)c2ccccc2)c(OC)c1 (stereo not given)
  ?, -19%
CCN(CC(=O)NCc1cccs1)C(=O)COc1ccccc1C#N
  -1%, 2%
COC(=O)[C@]1(CC(C)C)N[C@H](c2ccc(-c3ccc4c(c3)OCO4)cc2)[C@@H]2C(=O)N(C)C(=O)[C@@H]21
  ?, 1%
COc1ccc(Cc2nnc(Nc3ccc4c(c3)OCCO4)[nH]c2=O)cc1
  0%, -3%
Cc1noc(C)c1C(=O)Nc1cccc2ncccc12
  7%, 16%
COc1cc(O)c(C(CCN2CCCCC2)c2cc(OC)c(OC)c(OC)c2)c(OC)c1 (stereo not given)
  ?, -6%&12%
Cc1ccc(Nc2nc3ccccc3c3nncn23)c(Cl)c1
  -24%, -15%
CC1CC(C#N)N(N(C)C)C1=C(C#N)C#N (stereo not given)
  -3%, -1%
CCCc1cc(=O)n2[nH]c(NCc3c(F)cccc3Cl)nc2n1
  ?, -3%&0%
COC(=O)c1ccc(C2C(C(=O)Nc3ccccc3)=C(C)Nc3nc4ccccc4n32)cc1 (stereo not given)
  /, -6%
CS(=O)(=O)N1CCCC(C(=O)NCc2ccco2)C1 (stereo not given)
  16%, 0%

Screening data: PubChem, National Center for Advancing Translational Sciences (NCATS)
